Source: PubChem (National Center for Advancing Translational Sciences (NCATS))
VDR inhibitor = vitamin D3 receptor (human) inhibition. VDR-SRC2-3 peptide fluorescence polarization, 2 h. Potency, µM, inactives show max response, negative = inhibition, hits mostly inhibitors. 400,000 compounds, 0.93% hits; active means well fitted inhibition curve with a large enough effect; inconclusive means small, poorly fitted or top-dose-only effect, or another doubt; inactive means no such curve, though single readings can be large or run the other way; further: series mostly up to about 120 µM
Target sequence (P11473 whole entry, looked up): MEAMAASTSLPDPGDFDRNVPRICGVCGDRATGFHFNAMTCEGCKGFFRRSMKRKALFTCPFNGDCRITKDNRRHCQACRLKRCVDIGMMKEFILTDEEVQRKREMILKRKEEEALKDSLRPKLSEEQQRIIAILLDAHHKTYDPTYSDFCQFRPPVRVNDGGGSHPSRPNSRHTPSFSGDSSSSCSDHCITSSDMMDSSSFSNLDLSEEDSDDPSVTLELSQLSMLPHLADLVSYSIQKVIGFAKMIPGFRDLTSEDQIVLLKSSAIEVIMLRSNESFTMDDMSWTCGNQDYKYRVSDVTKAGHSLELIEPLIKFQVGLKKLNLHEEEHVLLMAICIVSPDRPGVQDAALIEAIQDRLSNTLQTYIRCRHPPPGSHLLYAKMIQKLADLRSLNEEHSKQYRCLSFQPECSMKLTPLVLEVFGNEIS
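Signal is fluorescence polarization, reporting how far test compounds block the interaction of VDR with the SRC2-3 coregulator peptide after a 2 h room-temperature incubation.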
The depositor's hits bear a star; ? = inconclusive; & = joins results of further samples. On the % scale 0 is the no-effect control and ±100 the full control effect; potency means the concentration at half of the fitted maximal effect.

| structure | VDR inhibitor |
| --- | --- |
| COc1cc(C(=O)NC2CCN(CC(=O)NC3CCCCC3C)CC2)cc(OC)c1OC (stereo not drawn) | 5% |
| CCN1CCN(C(=O)c2[nH]c3ccc(OC)cc3c2C)CC1 | 1% |
| Cc1ccccc1Nc1nc(N)nc(CSc2nncn2C)n1 | -6% |
| CC1CCN(CCOc2cc(Cl)ccc2Cl)CC1 | -2% |
| COc1ccc(CN2C(=NC(=O)C3CC3)SC3CS(=O)(=O)CC32)cc1OC (stereo not drawn) | -4% |
| O=C(CN1C(=O)NC2(CCCCC2)C1=O)N1CCN(c2ncccn2)CC1 | -3% |
| O=C(CSc1nc(-c2ccccc2)cc(C(F)(F)F)n1)NCc1ccco1 | -16% |
| O=C(COC(=O)c1ccc(Br)cc1)NC(=O)NCc1ccccc1 | -4% |
| O=C(COC(=O)c1ccc(S(=O)(=O)N2CCc3ccccc3C2)cc1)NC1CCS(=O)(=O)C1 (stereo not drawn) | 2% |
| CN(C)c1ncc2ncc(=O)n(Cc3cccs3)c2n1 | -14% |
| COc1c2occc2c(OC)c2c(=O)cc(C(F)(F)C(F)(F)F)oc12 | -13% |
| Cn1c(=O)[nH]c(=O)c2[nH]c(CN3CCN(C(=O)c4ccco4)CC3)nc21 | -2% |
| O=C(O)CCC(=O)N1N=C(c2ccccc2)CC1c1ccc2nccnc2c1 (stereo not drawn) | -14% |
| Cc1ccc(C)c(N2CCN(C(=O)CCn3c(=O)[nH]c4ccccc4c3=O)CC2)c1 | -4% |
| O=C(CNC(=O)c1ccc(Br)o1)Nc1ccc(N2CCCCCC2)cc1 | -19% |
| Cc1cccc(/C=C2/SC(=O)N(Cc3ccccc3Cl)C2=O)n1 | 18% |
| CCN1C(C)=C(C)S/C1=C1\SC(=S)N(C2CCCCC2)C1=O | -13% |
| O=C(Cn1c(-c2cccs2)cc2ccccc21)NCCCN1CCN(c2ccc(F)cc2)CC1 | 8% |
| Cc1cccc(CN2CCN(Cc3ccc4nonc4c3)CC2CCO)n1 (stereo not drawn) | 2% |
| CCOc1ccc(-c2cc(C(=O)OC)[nH]n2)cc1 | 14% |
| O=C1C2Sc3[nH]c(=O)sc3C(c3ccccc3)C2C(=O)N1c1ccccc1 (stereo not drawn) | -7% |
| CCC(C)Sc1nc2c(c(=O)[nH]1)C(c1cccs1)C1=C(CCCC1=O)N2 (stereo not drawn) | -8% |
| CCOC(=O)c1c(C)c(C(=O)NCc2ccco2)c(C)n1CC | -11% |
| CC(=O)c1ccc(NC(=O)CCc2c(C)nn(-c3ccc(N4CCOCC4)nn3)c2C)cc1 | ? |
| CN(C(=O)CCN1C(=O)/C(=C/c2ccccc2F)SC1=S)C1CCS(=O)(=O)C1 (stereo not drawn) | 3% |
| CC(C)N1C(=O)C2(OCCCO2)c2cc(Br)ccc21 | -11% |
| Cc1cccnc1NC(=O)C1CCN(S(=O)(=O)c2ccc3c(c2)CCC(=O)N3)CC1 | -24% |
| CN(C)S(=O)(=O)c1cc(NC(=O)CNCc2ccc(F)cc2)ccc1Cl | 1% |
| COc1ccc2c(c1)[C@H]1[C@H](CO2)[C@H](c2ccccc2)[C@]2(C)C(=O)Nc3ccccc3C(=O)N12 | -23% |
| CCN(CC(=O)NCCN1CCOCC1)S(=O)(=O)c1ccc(F)cc1 | 1% |
| C=C(C)CNC(=S)N/N=C/c1ccc(N2CCOCC2)cc1 | -5% |
| COc1ccc2nc(SC(C)C(=O)NC3CCCC3)[nH]c2c1 (stereo not drawn) | -3% |
| COc1cccc(NC(=O)CN2CCN(c3ccc(F)cc3)CC2)c1 | -4% |
| COc1ccc(C2CC(=O)C=C(NNS(=O)(=O)c3ccc(C)cc3)C2)cc1 (stereo not drawn) | 6% |
| O=C(O)CCC(=O)N1N=C(c2c(-c3ccccc3)c3cc(Cl)ccc3[nH]c2=O)CC1c1ccccc1 (stereo not drawn) | 0% |
| CSc1nc(N)nc2c1ncn2CC(=O)NCC(c1ccccc1)c1ccccc1 | -1% |
| CCCCS(=O)(=O)N1CCCC(C(=O)Oc2ccc(Cl)cc2)C1 (stereo not drawn) | -7% |
| Oc1ccc(/C=N/n2c(COc3ccccc3)n[nH]c2=S)cc1O | -18% |
| COCC1CCN(C(=O)c2cc(COc3cccc4cnccc34)on2)CC1 | -6% |
| CC(C)CCNc1nc(N)c([N+](=O)[O-])c(N2CCCCCC2)n1 | -13% |
| CCOC(=O)N1CCN(C(=O)CNC(=O)c2ccccc2F)CC1 | -5% |
| Cc1ccc(NC(=O)NC2CC(=O)N(c3ccc4c(c3)OCCO4)C2)cc1C (stereo not drawn) | -8% |
| CN1CCS/C1=C\C=C1/SC(=S)N(CC(=O)O)C1=O | 21% |
| CCC(C)(NC(=O)c1ccccc1)C(=O)O (stereo not drawn) | 8% |
| O=C1c2cc(Cl)ccc2-c2c(O)cc(Cl)cc21 | -2% |
| O=C(Cn1ncc2c(Cl)cccc21)NCc1cccc(Cl)c1 | 17% |
| C/C=C(\C)C(=O)NCCN1C2=NC[C@H](Cc3ccc(O)cc3)N2C[C@H]1Cc1ccc(O)cc1 | -9% |
| CCOC(=O)c1cc(C(C)(C)C)oc1CN | 7% |
| O=C(CN1CCCCC1)NCCNc1ccc(C(F)(F)F)cc1[N+](=O)[O-] | -11% |
| Cc1c(CNC2CCCCCC2)c(C(=O)O)c(C)n1Cc1ccc(F)cc1Cl | 14% |

For reference, some entries already given:
| structure | VDR inhibitor |
| --- | --- |
| Oc1ccc(/C=N/n2c(COc3ccccc3)n[nH]c2=S)cc1O | -18% |
| COCC1CCN(C(=O)c2cc(COc3cccc4cnccc34)on2)CC1 | -6% |
| CC(C)CCNc1nc(N)c([N+](=O)[O-])c(N2CCCCCC2)n1 | -13% |
| CCOC(=O)N1CCN(C(=O)CNC(=O)c2ccccc2F)CC1 | -5% |
| Cc1ccc(NC(=O)NC2CC(=O)N(c3ccc4c(c3)OCCO4)C2)cc1C (stereo not drawn) | -8% |
| CN1CCS/C1=C\C=C1/SC(=S)N(CC(=O)O)C1=O | 21% |

Remaining list, next part
| structure | VDR inhibitor |
| --- | --- |
| CN(C)c1ccc(CNC(=O)c2sc3ncccc3c2-n2cccc2)cc1 | 3% |
| O=C(NCCN1CCCCC1)Nc1ccc(F)c(Cl)c1 | 2% |
| O=C(Cn1nnc(-c2ccccc2NC(=O)c2ccccc2F)n1)NC1CCCC1 | 26% |
| Cc1ccc(NCC(=O)Nc2ccc(Br)cc2)cc1F | -8% |
| COc1ccccc1N1CCN(C(=O)c2cnn(-c3cccc(Cl)c3)c2C2CCN(C(=O)OC(C)(C)C)CC2)CC1 | -2% |
| CCN1CC2([N+](=O)[O-])C=CC(=O)C([N+](=O)[O-])(C1)C2CC(=O)c1ccccc1 (stereo not drawn) | -10% |
| CCOC(=O)/C=c1\s/c(=C(\C#N)C(=O)NC)n(-c2ccccc2)c1=O | 13% |
| CC(=O)c1ccc(-c2cc(C3C4C=CCC(C)C4C(=O)N3Cc3ccccc3)ccc2F)cc1 (stereo not drawn) | -19% |
| COC(=O)C1(Cc2cc(-c3ccc(Cl)cc3)no2)CCN(C(=O)OC(C)(C)C)CC1 | -4% |
| O=C(O)c1cccc2c1C(=O)N(c1ccc3c(c1)Cc1ccccc1-3)C2=O | 11% |
| Cc1cc(NC(=O)c2ccc(F)cc2)ccc1NC(=O)c1ccco1 | -9% |
| Cn1c(CNS(=O)(=O)c2ccc(Cl)cc2)n[nH]c1=S | -18% |
| N/C(=N\NC(=O)c1ccc(F)cc1)c1cc2ccccc2oc1=O | -6% |
| Cn1cc2cc([N+](=O)[O-])ccc2n1 | -4% |
| O=C(COc1ccccc1)N/N=C/c1sc(=O)n(Cc2cccc(C(=O)O)c2)c1Cl | -16% |
| Cn1cccc1Cc1nnc(SCC(=O)Nc2nccs2)n1CCc1ccccc1 | -12% |
| Cc1ccc2cc(CN(Cc3nnnn3Cc3ccco3)CC3CCCO3)c(=O)[nH]c2c1C (stereo not drawn) | -4% |
| Cc1cc(C)cc(-n2ccnc2SCC(=O)Nc2ccccc2F)c1 | 11% |
| Cc1ccc(Cl)cc1NC(=O)c1ocnc1C | 5% |
| CCCSc1cc(N2CCN(C)CC2)nc(-c2ccc(OC)cc2)n1 | 13% |
| Nc1ccc(-c2c3ccc(=O)cc-3oc3cc(O)ccc23)cc1C(=O)O | 0% |
| CCOc1cc(C(=O)Nc2ccc(S(=O)(=O)N3CCCCC3)cc2)ccc1OCC(=O)N1CCOCC1 | -13% |
| COc1ccc(CNC(=O)CN2C(=O)COc3ccc(S(=O)(=O)N4CCOCC4)cc32)cc1 | 9%&8% |
| OCCNCC1(O)C2CC3CC(C2)CC1C3 (stereo not drawn) | 8% |
| Cc1cc(C(=O)NNC(=O)CCN2CCN(c3ccccc3)CC2)c2ccccc2n1 | 3% |

The last 3 entries of the part above open the next one:
| structure | VDR inhibitor |
| --- | --- |
| COc1ccc(CNC(=O)CN2C(=O)COc3ccc(S(=O)(=O)N4CCOCC4)cc32)cc1 | 9%&8% |
| OCCNCC1(O)C2CC3CC(C2)CC1C3 (stereo not drawn) | 8% |
| Cc1cc(C(=O)NNC(=O)CCN2CCN(c3ccccc3)CC2)c2ccccc2n1 | 3% |
| CC(=O)c1ccc(S(=O)(=O)N2CCc3ccccc3C2)cc1 | -13% |
| COc1ccc(S(=O)(=O)N2CCOCC2)cc1NC(=O)COC(=O)C1=COCCO1 | 10% |
| CCc1ccc(C2=NN(C(=O)CCC(=O)O)C(c3cccs3)C2)cc1 (stereo not drawn) | 2% |
| CCOP(=O)(c1ccc(N(C)C)cc1)C(O)c1ccccc1F (stereo not drawn) | -14% |
| O=C(NC1CC1)C1=C[C@H](c2ccc(C(F)(F)F)cc2)C[C@H](OCc2ccc(CO)cc2)O1 | -13% |
| O=[N+]([O-])C1=CC=C2C(=NC3(CCCCC3)N2O)C1=NC1CCCCC1 | 9% |
| COc1ccc(C(=O)NNC(=O)c2ccc3ccccc3c2O)cc1 | -8% |
| O=C(N/N=C/c1ccc(O)cc1)c1ccncc1 | 0% |
| CCCCC(=O)N1CCN(c2nc3ccc(Br)cc3s2)CC1 | 15% |
| CCN(CC)c1ccc(S(=O)(=O)N2CCOCC2)cc1NC(=O)CSc1ccccc1 | -12% |
| O=C(Cc1ccccc1)N(Cc1cccnc1)c1nc2ccc(F)cc2s1 | 4% |
| CCN(CC)S(=O)(=O)c1cccc(C(=O)Nc2ccccc2C(=O)N2CCOCC2)c1 | 1% |
| CCOc1ccc(NC(=O)C2CCN(C(=O)NCc3ccccc3)CC2)cc1 | 4% |
| CN(C(=O)COC(=O)c1ccccc1Nc1ccccc1)c1c(N)n(Cc2ccccc2)c(=O)[nH]c1=O | -4% |
| CC(C(=O)N1CCC(C(N)=O)CC1)N(c1ccc(Oc2ccccc2)cc1)S(C)(=O)=O (stereo not drawn) | 6% |
| CSc1sc(-c2ccnc(SCCS(C)(=O)=O)n2)c(-c2ccccc2)c1C#N | 7% |
| COc1ccc(NC(=O)COC(=O)Cc2ccc(-c3ccccc3)cc2)c(OC)c1 | -5% |
| O=c1cnnc(Nc2ccc(Cl)c(C(F)(F)F)c2)[nH]1 | -4% |
| Cc1ccc(S(=O)(=O)N(C#N)c2nc(C)cc(C)n2)cc1 | -3% |
| CCSc1nc(C)nc2c1oc1ccccc12 | 9% |
| CN(C)S(=O)(=O)N1CCC(n2c(C(F)(F)F)nc3cccnc32)CC1 | 8% |
| CC1CCCCC1NCC(=O)NCc1ccc(F)cc1 (stereo not drawn) | 7% |
| COC(=O)[C@]12C(=O)C(C)=C(O)[C@@]1(C)C(C)=CC1[C@@]34CC[C@@H](OC(C)=O)C(C)(C)C3C(C[C@]12C)OC4=O (stereo partly drawn) | -6% |
| CNC(=O)C(=O)NCC(c1cccs1)S(=O)(=O)c1ccc(F)cc1 (stereo not drawn) | -7% |
| CCc1nc(NCCC(C)C)c(C#N)c2c1CCCC2 | 16% |
| N#Cc1cccc(S(=O)(=O)NCC(=O)NCc2ccc3c(c2)OCO3)c1 | -10% |
| COc1ccc(C(C(=O)NC2CCCC2)N(C(=O)c2ccco2)c2ccccc2OC)cc1 (stereo not drawn) | ? |
| O=C(OCc1nnc(-c2ccccc2)o1)c1cc(S(=O)(=O)N2CCOCC2)ccc1F | -11% |
| COc1ccccc1CN1CCC2(CC1)CCN(C(=O)c1ccncc1)CC2 | 0% |
| COc1cc2c(Cc3c4c5c(cc(OC)c(OC)c5c5c(OC)c(OC)ccc35)CCN4C)c3c4c(cc(OC)c(OC)c4c2cc1OC)CCN3C | ? |
| NC1=NCc2ccccc21 | -6% |
| Cc1sc(NC(=S)Nc2ccc(F)cc2)c(C(N)=O)c1C | 19% |
| Nc1nc(Cl)cc(N2CCC(c3cc(-c4ccc(Cl)cc4)n[nH]3)CC2)n1 | -2% |
| Nc1ccc(N=Nc2ccccc2O)c(N)c1 | 4% |
| COc1ccc(CC(=O)NCc2ccccc2Cl)cc1S(=O)(=O)N1CCOCC1 | -4% |
| Cc1sc2nc(CSCC(=O)N(C)CC(=O)Nc3ccc(F)cc3)[nH]c(=O)c2c1C | ? |
| COC(=O)c1ccc(C2CC(=O)NC3=C2C(=O)CCC3)cc1 (stereo not drawn) | 0% |
| CC(C)(C)c1csc(Sc2ncccc2[N+](=O)[O-])n1 | -12% |
| Cc1noc(NS(=O)(=O)c2ccc(NC(=O)c3oc4ccc(Cl)cc4c3C)cc2)c1C | 2% |
| Cc1ccccc1Cn1c2ccccc2c2cn[nH]c(=O)c21 | 5% |
| CSc1ncc(C(=O)NCc2ccc(C)cc2)c(-c2ccccc2)n1 | 11% |
| O=C(c1ccncc1)N1CCN(S(=O)(=O)c2cccc(Cl)c2)CC1 | -12% |
| COc1ccc(C(=O)Oc2c(Sc3ccc(Cl)cc3)c(C)nn2C(C)(C)C)cc1OC | -3% |
| Nc1nc(Nc2ccccc2)nc2c1ncn2[C@@H]1O[C@H](CO)[C@@H](O)[C@H]1O | 1%&-12% |

The list is partial; rates above refer to the full screens.
